# Screening results as filed in PubChem.
# PrP 5UTR inh = suppresses PrP 5' UTR mRNA reporter expression; inhibition, % (no concentration beside the values); 340,000 compounds, 0.35% hits; cell-based PrP 5' UTR mRNA reporter, plate reader;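 active = every replicate at 50% or more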;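 also: 0 = median of the neutral control wells; tested in H4 reporter cells; numbers are from one replicate; inactives centre near -14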
# ugtP null kill = growth inhibition of S. aureus ugtP deletion strain. S. aureus RN4220 ugtP deletion, OD600 growth, 16 h; some inactives read as strong as hits. growth inhibition, % (concentration not given with the values). 330,000 compounds, 0.54% hits. AID 1259309;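 active = z-score under -3 and OD600 up to 0.15 on both plates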;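 also: plate controls were untreated wells for no effect and antibiotic for full effect; wells of about 80 µL received 100 nL stock; the first replicate is given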
# BJeLR viability = kills HRASV12-expressing BJeLR cells; AID 1554; 300,000 compounds, 0.17% hits; BJeLR (HRASV12) viability, CellTiter-Glo ATP luminescence, 48 h; reference of the scale not given here; inhibition, % (test concentration not listed);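 active = replicate mean above 50%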;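 also: 50 nL library stock added to about 25 µL; numbers are from one replicate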
# RN4220 kill = kills Staphylococcus aureus RN4220 | S. aureus RN4220 growth, OD600, 16 h | AID 1259311 | inhibition, % (concentration not given with the values) | 330,000 compounds, 0.33% hits;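 active = z-score of -3 or lower and OD600 up to 0.18 on both plates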;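 also: plate controls were untreated cells for no effect and reference antibiotic for full effect; stock transfer was 100 nL into about 80 µL; one replicate is shown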
# Mtb hypoxia inh = inhibitors of hypoxia-regulated fluorescent reporter in Mycobacterium tuberculosis | M. tuberculosis hypoxia-regulated fluorescent reporter, fluorescence | fluorescence inhibition, % (concentration not given with the values) | 300,000 compounds, 0.1% hits | AID 1159583;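 active = 35 to 45% if threefold the growth effect, above 45% if 1.5-fold the growth effect; inactive = the rest, general growth blockers included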;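 also: wells of about 50 µL received 100 nL stock; 0% = vehicle wells and 100% = reference inhibitor wells; whole bacteria with a GFP reporter of the hypoxia response; strong numbers were not always called active; many hits fall short of the cut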
# Bead autofluor = counter-screen for toxin protease inhibitors: compound fluorescence. 360,000 compounds, 3.1% hits. fluorescence intensity (concentration not given with the values). compound autofluorescence counterscreen, microsphere flow cytometry; hits give high values;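 active = at least 3 SD above the mean of all compounds, about 16000 in these data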;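 also: 100 nL of 1 mM stock went into each well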
# Mtb hypoxia inh growth = further read-out of Mtb hypoxia inh, marked with its call; growth inhibition, %; measured here: M. tuberculosis growth (absorbance);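 0% = vehicle and 100% = reference antibiotic; read after six days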
# Starred values were filed as active, the others as inactive; x = not tested or not shown.
canonical_smiles	PrP 5UTR inh	ugtP null kill	BJeLR viability	RN4220 kill	Mtb hypoxia inh	Mtb hypoxia inh growth	Bead autofluor
CCCCOc1cccc(C(=O)O)c1	-18	-3	9	-0.4	x	x	2830
CNC(=O)c1oc(-c2ccc(Cl)cc2)nc1C	-46	-11	-6	-1.9	3	9	4576
CCOC1(NC(=O)c2ccccc2)C(C)=CC(=O)C=C1C	-28	0	-10	4.6	12	12	4102
COc1ccc(/C=C/C(=O)c2c(O)c(OC)c3occc3c2OC)cc1	-39	2	x	6.7	13	16	3419
CCC(C)NC(=O)CC(NS(=O)(=O)c1ccc(C)cc1)c1ccc(OC)cc1 (stereo not given)	-21	7	-3	2.0	7	12	7756
CC(=O)C1=C(C)N(CC2CC2)C(=O)NC1c1cccs1 (stereo not given)	x	-1	x	6.5	3	-3	x
O=C(NCCN1CCOCC1)C1(C(F)(F)F)CC(=CCc2ccccc2)CCCO1 (stereo not given)	x	3	x	5.4	21	8	x
CCOc1ccc(S(=O)(=O)NCC2CCCO2)cc1 (stereo not given)	-5	0	2	-2.1	19	38	5934
CCOC(=O)C1Oc2ccccc2C(c2ccc(F)cc2)=C1C(=O)OC (stereo not given)	-32	71	x	2.9	2	5	4487
CSCCC(NC(=O)COc1ccccc1)C(=O)OC(C)C(=O)Nc1ccccc1C (stereo not given)	-37	1	1	1.1	8	1	4278
Cc1ccc(-c2nc3ncccc3o2)cc1NC(=O)Cc1ccc(Cl)cc1	-14	1	-4	6.5	x	x	4321
C=CCNc1nnc(SC2CC(=O)N(c3ccc(OC)cc3)C2=O)s1 (stereo not given)	-29	30	2	13	2	0	17184*
Cc1nc2c(oc3ccc(Cl)cc32)c(=O)[nH]1	-20	-1	13	4.6	16	7	4916
Cc1ccc(NC(=O)CCS(=O)(=O)c2ccc(Br)cc2)nc1	-9	6	-3	4.0	x	x	2484
O=c1ccn(Cc2ccccc2)cc1	0	-4	-1	2.6	14	9	3777
O=C(Nc1ccc(S(=O)(=O)NC2=NCCCCC2)cc1)c1cccs1	-9	4	x	2.3	30*	54*	3842
CC1(C)CC(=O)C2=C(C1)N(Cc1ccco1)C(=O)C2(O)C(F)(F)F (stereo not given)	-5	1	-2	1.7	8	5	5831
COC(=O)CC/C(C)=N\Nc1ccc([N+](=O)[O-])cc1[N+](=O)[O-]	10	x	3	x	x	x	21329*
O=C(NC1CC2CCCC(C1)N2C(=O)NC1CCCCC1)c1ccccc1 (stereo not given)	-21	3	-5	4.8	5	8	4055
Cn1nnc(NC(=S)NC(=O)c2cccc3c(Br)cccc23)n1	-8	x	-1	x	x	x	5106
O=C(Cn1ncc2c(=O)oc3ccccc3c21)NCc1cccnc1	-12	-1	-1	-0.2	1	1	2284
C=CCn1cc(CN2CCC(C(=O)Nc3cccc(-c4cccc(F)c4)c3)CC2)c(C)n1	-7	-7	1	1.1	9	7	5699
O=C(c1cc(F)ccc1F)C1CCCN(C(=O)c2ccco2)C1 (stereo not given)	-14	10	2	4.0	20	23	2300
Cc1c(Cl)cccc1NC(=S)NCc1cccn1C	-16	0	21	4.8	12	11	2041
Cc1ccc(-c2cc3cccc[n+]3cc2-c2ccc(C)cc2)cc1	-29	2	0	4.0	15	19	10910
COc1ccc(-c2csc(NC(=O)c3cccc(N4C(=O)CCC4=O)c3)n2)cc1OC	2	-16	x	8.2	7	-3	x
CCN(CC)CCCOC(=O)C1(c2ccccc2)CCCC1	-23	1	5	-0.2	x	x	2869
Cc1nn(Cc2ccc([N+](=O)[O-])cc2)c(=O)n1-c1c(F)cccc1F	-13	12	5	6.3	7	3	4551
O=C(NCC1CCCN(Cc2ccccc2F)C1)c1cccc(C(F)(F)F)c1 (stereo not given)	-26	8	0	1.4	14	6	2752
Nc1cc(N)nc(SCC(=O)Nc2ccccc2)n1	-20	0	0	1.2	x	x	5387
CCC1CCCCN1C(=O)Cn1c(C(=O)OC)cc2ccsc21 (stereo not given)	-18	7	2	2.5	18	3	9278
Cc1nn(Cc2ccc(C(=O)O)o2)c(C)c1[N+](=O)[O-]	1	9	-7	6.2	3	1	4127
O=C(NN=Cc1cccc([N+](=O)[O-])c1)c1cccc2cc[nH]c12	x	5	x	2.1	6	-1	x
O=C(NCC1CCCO1)c1ccc2c(c1)OCO2 (stereo not given)	-12	6	0	3.1	5	6	7817
CCS(=O)(=O)Nc1ccc(C2=NN(S(=O)(=O)CC)C(c3cccs3)C2)cc1 (stereo not given)	4	-4	-2	0.5	8	16	5825
CCc1ccc(N(CC(=O)NC2CCCCC2)C(=O)CNC(=O)c2ccco2)cc1	-22	6	-7	3.9	7	2	3188

# Reformatted with values under each structure: entries from further up
# Values run as follows: PrP 5UTR inh	ugtP null kill	BJeLR viability	RN4220 kill	Mtb hypoxia inh	Mtb hypoxia inh growth	Bead autofluor
CCS(=O)(=O)Nc1ccc(C2=NN(S(=O)(=O)CC)C(c3cccs3)C2)cc1 (stereo not given)
 : 4	-4	-2	0.5	8	16	5825
COc1ccc(-c2csc(NC(=O)c3cccc(N4C(=O)CCC4=O)c3)n2)cc1OC
 : 2	-16	x	8.2	7	-3	x
Cc1ccc(-c2cc3cccc[n+]3cc2-c2ccc(C)cc2)cc1
 : -29	2	0	4.0	15	19	10910

# Going on with the list:
canonical_smiles	PrP 5UTR inh	ugtP null kill	BJeLR viability	RN4220 kill	Mtb hypoxia inh	Mtb hypoxia inh growth	Bead autofluor
Cn1cccc1Cc1nnc(SCC(=O)Nc2ccccc2F)n1CCc1ccccc1	-9	12	8	3.3	x	x	4570
Cc1ccc(S(=O)(=O)N(C)C)cc1NC(=O)CCNC(=O)c1ccccc1Cl	-12	0	5	-2.0	-7	-2	2489
COC(=O)CC(C)=NNc1ccc(S(=O)(=O)N2CCCC2)cc1[N+](=O)[O-]	x	1	x	6.3	13	1	x
CCCn1c(N)cc(=O)n(CCC)c1=O	-16	7	2	1.4	9	4	4065
CCOC(=O)N1N=C(c2ccccc2)CC1(O)C(C)(F)F (stereo not given)	1	-6	3	0.6	-4	-2	4713
CCCCC(=O)NNC(=S)NC(=O)c1ccc(C)cc1	-19	10	2	37	11	6	4505
CCCCNC(=O)CSc1nc2ccc(C)cc2[nH]1	-1	1	-11	-0.3	4	4	4423
O=C1c2ccccc2C(Nc2ccc(Cl)cn2)N1Cc1ccccc1 (stereo not given)	-4	-13	-16	-3.4	3	16	4543
COc1cc(C(=O)OCC(=O)c2c(N)n(C)c(=O)n(C)c2=O)ccc1OCCC(C)C	-14	0	-2	5.1	15	3	3479
CCCn1c(=O)c2ccccc2n2c(SCC(=O)c3cc(C)n(CCOC)c3C)nnc12	-24	-5	x	4.9	2	4	13340
O=S(=O)(N/N=C/c1ccc(OC2CSC2)cc1)c1ccccc1	-14	x	1	x	x	x	2707
Clc1ccc(-c2nnc(-c3ccccc3)c(-c3c[nH]c4ccccc34)n2)cc1	-6	4	9	-10	-6	-11	5049
CCC1(CC)C(=O)N(Cc2ccccc2)C(=O)N(Cc2ccccc2)C1=O	4	20	-6	6.6	0	2	5355
CCOc1ccc(C2NC(=O)NC(C)=C2C(=O)OCc2ccccc2)cc1 (stereo not given)	-24	6	-3	-4.1	2	3	3071
CCN(C(=O)CCN1C(=O)c2ccccc2C1=O)C1CCCCC1	-18	8	1	6.4	7	8	9979
COC(=O)C(C)Oc1ccc(Cc2ncc(C(F)(F)F)cc2Cl)cc1 (stereo not given)	-34	14	-3	1.3	11	7	4004
Cc1ccc(NC(=O)CN2C(=O)CN=C(c3ccccc3)c3cc(Cl)ccc32)cc1	-5	10	4	0.4	1	-3	4187
O=C(CSc1nc2ccccc2s1)c1cc2ccccc2o1	-16	22	-4	4.3	3	5	23696*
COC(=O)c1ccc(N2CCCCC2)c(NS(=O)(=O)c2ccc(C)cc2)c1	-10	71	8	4.3	5	8	5701
O=C(CN1C2=NCCCN2c2ccccc21)c1ccc(Br)s1	-17	-1	-7	-6.3	x	x	2675
Cn1c(=O)[nH]c(=O)c2c1nc(CN1CCN(c3ccccc3F)CC1)n2CCc1ccccc1	-3	3	11	-13	5	11	4757
CCOc1ccc(C(=O)N(CN2CCCC2=O)c2ccc(C)cc2)cc1	x	1	0	-2.0	5	-4	x
CC(/C=N/NC(=O)c1ccc(Cn2cc([N+](=O)[O-])cn2)o1)=C\c1ccccc1	-21	x	7	x	x	x	4626
CCC(=O)N1CCc2cc(S(=O)(=O)NCCC(=O)NCc3ccccc3Cl)ccc21	-14	7	7	6.1	9	7	5299

# Compounds above that have a Cl atom (10):
canonical_smiles	PrP 5UTR inh	ugtP null kill	BJeLR viability	RN4220 kill	Mtb hypoxia inh	Mtb hypoxia inh growth	Bead autofluor
CNC(=O)c1oc(-c2ccc(Cl)cc2)nc1C	-46	-11	-6	-1.9	3	9	4576
Cc1ccc(-c2nc3ncccc3o2)cc1NC(=O)Cc1ccc(Cl)cc1	-14	1	-4	6.5	x	x	4321
Cc1nc2c(oc3ccc(Cl)cc32)c(=O)[nH]1	-20	-1	13	4.6	16	7	4916
Cc1c(Cl)cccc1NC(=S)NCc1cccn1C	-16	0	21	4.8	12	11	2041
Cc1ccc(S(=O)(=O)N(C)C)cc1NC(=O)CCNC(=O)c1ccccc1Cl	-12	0	5	-2.0	-7	-2	2489
O=C1c2ccccc2C(Nc2ccc(Cl)cn2)N1Cc1ccccc1 (stereo not given)	-4	-13	-16	-3.4	3	16	4543
Clc1ccc(-c2nnc(-c3ccccc3)c(-c3c[nH]c4ccccc34)n2)cc1	-6	4	9	-10	-6	-11	5049
COC(=O)C(C)Oc1ccc(Cc2ncc(C(F)(F)F)cc2Cl)cc1 (stereo not given)	-34	14	-3	1.3	11	7	4004
Cc1ccc(NC(=O)CN2C(=O)CN=C(c3ccccc3)c3cc(Cl)ccc32)cc1	-5	10	4	0.4	1	-3	4187
CCC(=O)N1CCc2cc(S(=O)(=O)NCCC(=O)NCc3ccccc3Cl)ccc21	-14	7	7	6.1	9	7	5299
